RecA splice inh: Mtb RecA intein splicing inhibitors, primary screen, biochemical, fluorescence, HTS; Protein RecA (Mycobacterium tuberculosis (strain ATCC 25618 / H37Rv)), P9WHJ3; cell-free RecA intein splicing; inhibition, %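 (about 9 µM by stock and volumes)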; 290,000 compounds, 0.75% hits; in the data active = inhibition above about 30%; inconclusive = no clear call, values can overlap the other calls;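 also: 0% = vehicle wells and 100% = reference inhibitor control wells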
Target sequence (P9WHJ3 whole entry, looked up, canonical isoform): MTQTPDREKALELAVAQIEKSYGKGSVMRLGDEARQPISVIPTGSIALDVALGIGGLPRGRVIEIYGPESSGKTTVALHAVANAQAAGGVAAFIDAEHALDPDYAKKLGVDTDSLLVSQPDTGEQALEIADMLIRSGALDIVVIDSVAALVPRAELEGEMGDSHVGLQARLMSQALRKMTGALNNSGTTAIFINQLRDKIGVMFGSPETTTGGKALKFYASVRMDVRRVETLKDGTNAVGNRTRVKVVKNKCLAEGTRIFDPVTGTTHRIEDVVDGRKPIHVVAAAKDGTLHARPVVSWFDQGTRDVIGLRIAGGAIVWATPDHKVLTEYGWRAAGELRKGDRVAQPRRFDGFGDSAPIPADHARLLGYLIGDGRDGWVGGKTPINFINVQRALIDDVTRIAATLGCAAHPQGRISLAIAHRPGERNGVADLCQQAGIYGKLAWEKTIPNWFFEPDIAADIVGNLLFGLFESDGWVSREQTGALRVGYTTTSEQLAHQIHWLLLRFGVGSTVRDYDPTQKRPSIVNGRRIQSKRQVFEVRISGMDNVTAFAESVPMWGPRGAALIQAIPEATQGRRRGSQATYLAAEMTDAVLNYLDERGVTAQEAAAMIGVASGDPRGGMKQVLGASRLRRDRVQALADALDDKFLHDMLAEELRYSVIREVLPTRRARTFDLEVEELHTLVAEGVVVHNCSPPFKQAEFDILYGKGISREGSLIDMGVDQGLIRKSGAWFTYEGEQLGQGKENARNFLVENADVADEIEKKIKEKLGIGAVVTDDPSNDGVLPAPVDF
Mtb growth: M. tuberculosis H37Rv growth inhibitors, H37Rv strain (AID 1626) | 220,000 compounds, 0.95% hits | M. tuberculosis H37Rv growth inhibition; higher % means a stronger effect | one-dose inhibition, % at 10 µM; IC50 in µM for titrated hits;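 active = confirmed in a dose series; inconclusive = inhibition above 80% but not taken into the dose series; inactive = below 80% or under 30% at every dose of the series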;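 also: bacteria incubated seven days before Alamar blue readout; 0% = bacteria only wells and 100% = bacteria with antibiotic wells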
YopH PTP inh: YopH tyrosine phosphatase inhibitors, primary screen, biochemical, fluorescence Ex485/Em525; YopH tyrosine phosphatase [Yersinia enterocolitica]; inhibition, %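 (about 10 µM by stock and volumes)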; 140,000 compounds, 0.16% hits;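 active = inhibition of 50% or more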;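 also: controls were vehicle for no effect and minimum signal wells for full effect; inactives centre near -20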
Mtb bLac sens: beta-lactam sensitization of Mtb H37Rv, H37Rv; M. tuberculosis H37Rv growth with meropenem, percent inhibition; hits of this screen are not shown here; inhibition, % at 25 µM; 330,000 compounds, 0.27% hits;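 active = about 74% or more and at least 40 points above the plate without the antibiotic, then above 30% in a dose series; inconclusive = first-round hits that could not be retested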;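 also: growth measured after seven days incubation then overnight dye step; 0% = bacteria only wells and 100% = bacteria with antibiotic; twin plates without the antibiotic show which effects depend on it; some results filed as inactive read as strong as hits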
Arbovirus anti: antivirals against arbovirus infection, primary screen, cell-based, full library, 10K replicate subset. arbovirus infection cell-based antiviral screen. inhibition, % at 10 µM. 200,000 compounds, 0.37% hits. AID 1251, 2008;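 active = inhibition from about 30%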;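 also: bluetongue infection of BSR cells; cell survival read as ATP light after 72 h; 0% = infected wells without compound and 100% = uninfected wells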
Arbovirus anti repeat: also measured in Arbovirus anti; calls as there; inhibition, %; measured here: 10K subset replicate screen; many hits read low in the repeat;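 first of two repeat runs on a subset; 0% = infected and 100% = uninfected wells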
* marks the source's active call; other numbers are inactive results; ? = inconclusive; nt = no result given. An excerpt; count on the stated rates, not on these rows.

SMILES | RecA splice inh | Mtb growth | YopH PTP inh | Mtb bLac sens | Arbovirus anti | others
COc1cccc(N2CC(C(=O)Nc3nnc(SCCN4CCOCC4)s3)CC2=O)c1 (centres undefined) | -0.8 | nt | nt | 0 | nt
COC(=O)C/C=C/[C@@H](C)[C@@H](/C=N/O[C@H](C)c1cn([C@@H]2COC[C@H]2O)nn1)NS(=O)(=O)c1ccc(C)cc1 | 0.4 | nt | -18 | -22 | 6
CN(C(=O)COC(=O)CNC(=O)c1ccc(Cl)cc1Cl)c1ccccc1 | nt | 1% | nt | 0 | -3
Cn1c(O)c(/C=N/N2CCOCC2)c(=O)n(-c2ccccc2)c1=S | -0.7 | -9% | nt | -11 | nt
O=C(Nc1ccc(N2CCOCC2)cc1)C1CCCCC1 | -2.2 | 6% | -15 | 11 | 6
CCCCNC(=O)[C@H]1C[C@H]1[C@@H](O)[C@H](CO)NC(=O)[C@H](COCc1ccccc1)NC(=O)OC(C)(C)C | -2.0 | nt | nt | -4 | nt
CCOc1cc(/C=C/c2ccc3cccc([N+](=O)[O-])c3n2)ccc1O | 17 | -5% | -16 | -1 | -3
CCC(=O)OC1(C)C(=O)C=C2C=C(c3ccsc3)OC=C2C1=O (centres undefined) | -2.0 | -11% | nt | -1 | nt
COc1ccc(NC(=O)c2cccc(N3C(=O)NC4CC3(C)Oc3ccccc34)c2)cc1 (centres undefined) | nt | -2% | -11 | 2 | 1
CN(C)CC1CSCCC1(O)c1ccccc1Cl (centres undefined) | 1.0 | -1% | -35 | 0 | 5
O=C(C1CCN(S(=O)(=O)N2CCC3(CC2)OCCO3)CC1)N1CCC(Cc2ccccc2)CC1 | 3.9 | -11% | -26 | 6 | 11
N/C(=N\O)c1ccncc1 | -2.5 | -15% | nt | -8 | nt
Cc1ccc(-n2nnnc2SCC(=O)Nc2nc(-c3ccc(F)cc3)cs2)cc1C | 1.6 | -12% | -21 | 7 | -16
CC(C)(C)c1ccc2c(c1)OC(C(=O)N/N=C\c1ccc[nH]1)CO2 (centres undefined) | 7.6 | nt | nt | ? | nt
CCn1c(SCC(=O)NCc2ccco2)nnc1C1CCCC1 | 2.2 | nt | nt | -12 | nt
CCc1cc2cc(C)ccc2nc1SCC(=O)Nc1cc(C)on1 | -0.2 | -3% | -22 | 6 | -3
CC1CCc2cc(F)cc3c(O)c(C(=O)NCCN(C)C)c(=O)n1c23 (centres undefined) | -4.2 | nt | nt | 2 | nt
CCn1c(SC(C)C(=O)O)nc2sc3c(c2c1=O)CCC3 (centres undefined) | nt | 6% | -30 | 8 | 1
CC(=O)N1c2ccccc2NC2=C(C(=O)CCC2)C1c1ccco1 (centres undefined) | 3.2 | -10% | nt | -13 | -3
CCN(CC(=O)Nc1cc(Cl)ccc1C)C(=O)CCOc1ccccc1C | -0.7 | nt | nt | -4 | nt

Continued, overlapping the part above by four compounds.
SMILES | RecA splice inh | Mtb growth | YopH PTP inh | Mtb bLac sens | Arbovirus anti | others
CC1CCc2cc(F)cc3c(O)c(C(=O)NCCN(C)C)c(=O)n1c23 (centres undefined) | -4.2 | nt | nt | 2 | nt
CCn1c(SC(C)C(=O)O)nc2sc3c(c2c1=O)CCC3 (centres undefined) | nt | 6% | -30 | 8 | 1
CC(=O)N1c2ccccc2NC2=C(C(=O)CCC2)C1c1ccco1 (centres undefined) | 3.2 | -10% | nt | -13 | -3
CCN(CC(=O)Nc1cc(Cl)ccc1C)C(=O)CCOc1ccccc1C | -0.7 | nt | nt | -4 | nt
COc1cccc(C(c2nnnn2Cc2ccccc2)N2CCN(C3CCCC3)CC2)c1OC (centres undefined) | 0.5 | 5% | -18 | -2 | 13
Cc1cc(C)c(NC(=S)N(C)C)cc1C | 1.0 | -4% | nt | -4 | nt
CCN(CC)S(=O)(=O)c1cccc(-c2cn3cc(C)ccc3n2)c1 | 4.0 | -7% | -9 | 17 | -20
Cc1ccc(N(CC(=O)NC(C)(C)C)C(=O)CCC(=O)Nc2nccs2)cc1C | 2.0 | nt | nt | 5 | nt
O=C(NCc1cccc(Cl)c1)C1CCC(=O)N(C2CC2)C1 (centres undefined) | 1.0 | nt | nt | 0 | nt
CCOc1ccccc1NC(=O)CSc1nccn1-c1ccccc1 | 6.3 | nt | -40 | 1 | -4
CC1CCCCN1S(=O)(=O)c1ccc(C(=O)N2CCOCC2)cc1 (centres undefined) | 1.9 | nt | nt | 2 | nt
Cc1c(OCC(N)=O)ccc2c(-c3ccccc3)cc(=O)oc12 | -2.3 | nt | nt | -3 | nt
CC(C)CCN(CC(=O)NC1CCCC1)C(=O)C(=O)Nc1ccc2c(c1)OCCO2 | -0.4 | nt | nt | 2 | nt
Cn1cccc1C(=O)C(=O)Nc1ccccc1 | -6.5 | 3% | 35 | 3 | -17
COC(=O)c1[nH]c2cc(OC)ccc2c1N | -5.7 | -5% | -3 | 1 | -3
Cc1ccc(-c2nc3ccc(NS(=O)(=O)c4ccccc4)cc3[nH]2)o1 | 0.9 | -5% | -14 | 6 | -19
CCOc1cc(/C=N/NC(=O)CSc2cccc3cccnc23)ccc1O | -12 | -12% | nt | -3 | 6
COc1ccc(-c2cn(CC3CCCCC3)nn2)cc1 | 1.2 | nt | nt | 2 | nt
O=C1CSC(c2cccc(F)c2)N1c1ccccc1F (centres undefined) | 2.0 | 0% | -4 | 3 | 7
COc1cccc(OC)c1C(=O)Nc1nc2ccc(S(C)(=O)=O)cc2s1 | 0.1 | -8% | -35 | 6 | -2
O=S(=O)(NC1CCCCC1)c1ccc(F)c2ccccc12 | -1.1 | 1% | -8 | 20 | 11
Oc1cccc(CCC2CCCCN2Cc2cn[nH]c2-c2ccc3c(c2)OCO3)c1 (centres undefined) | -0.2 | 6% | nt | 7 | -10
COCCN(C(=O)COC(=O)C1(c2ccccc2)CC1)c1c(N)n(CC(C)C)c(=O)[nH]c1=O | 0.3 | nt | nt | -7 | nt
O=C(O)CCCC(=O)Nc1ccc(Br)cc1C(=O)O | 0.6 | -8% | -58 | 13 | 1
COc1cccc(NC(=S)NN2CCN(C)CC2)c1 | 2.3 | -11% | -52 | -12 | 6
CCc1c(O)nc(SCC(=O)N2CCOCC2)n(-c2ccccc2)c1=O | 0.4 | -4% | -2 | -7 | -3
CCN(CC)/C(=N/O)NC(=O)NS(=O)(=O)c1ccc(C)cc1 | -5.8 | -8% | -15 | 0 | 10
Cc1ccc(-c2nc(N/N=C/c3ccccc3[N+](=O)[O-])c3ccccc3n2)cc1 | 2.7 | 5% | -36 | 9 | -3
CC(C(=O)Nc1ccc([N+](=O)[O-])cc1)N1CCN(C/C=C/c2ccccc2)CC1 (centres undefined) | 4.4 | 14% | -10 | 62 | 13
O=c1c(C=NCc2cccnc2)c(C(F)(F)F)[nH]n1-c1nc2ccccc2s1 | 0.7 | -8% | nt | 1 | 28
c1ccc(COc2ccccc2CNC23CC4CC(CC(C4)C2)C3)cc1 | 5.1 | 17% | nt | 9 | -21
COc1c(/C=N/NC(N)=S)c(C)nn1-c1ccccc1 | -1.3 | 20% | 0 | 91 | -1
O=C(c1ccccc1F)N(Cc1ccc2c(c1)OCO2)Cc1cc2cc3c(cc2n2nnnc12)OCO3 | 3.0 | 2% | 24 | -9 | -8
CN(C)S(=O)(=O)c1ccc(Cl)c(C(=O)NCc2ccco2)c1 | nt | 0% | -11 | -9 | 1
CCCn1c(SCC(=O)c2cc(OC)ccc2OC)nnc1C(C)C | -1.0 | -10% | -46 | -13 | -1
CCCn1nnnc1NCc1cccc(OC)c1OC | -0.8 | nt | nt | -2 | nt
CCOc1ccc(-c2cc(C(=O)O)c3ccccc3n2)cc1 | -0.3 | -5% | -28 | 4 | -2
CCn1c(=O)n(CC)c2cc(S(=O)(=O)Nc3c(C)cccc3C)ccc21 | 3.7 | -3% | -1 | -1 | 2
CNC(=S)N/N=C/c1cccc(OCc2ccccc2F)c1 | 5.7 | 0% | -34 | 62 | 9
COc1ccc(NC(=O)Nc2ccc(C(C)C)cc2)cc1 | 2.1 | 5% | nt | 8 | nt
Cc1ccc(C2=C(CC(=O)O)C(=O)CC2)cc1 | 0.1 | -4% | -19 | -2 | 5
Cc1cccc2c(=O)cc(C)n(CC(=O)N3CCOCC3)c12 | 0.5 | 1% | -35 | -2 | 0
CN(C)S(=O)(=O)NCC1CCCN(Cc2ccc(-c3ccccc3)cc2)C1 (centres undefined) | 3.6 | nt | nt | 1 | nt
CSCCC(NC(=O)c1ccc([N+](=O)[O-])cc1Cl)C(=O)OC(C)C(=O)NCc1ccco1 (centres undefined) | -0.1 | nt | nt | -10 | nt
CCO[C@H]1OC(C(N)=O)=C[C@@H](C2CC2)[C@@H]1CCCO | -1.9 | -2% | nt | -2 | nt
CCOC(=O)c1cccc(NC(=O)Cn2cc3c(n2)CCC(C)C3)c1 (centres undefined) | -0.6 | -6% | -10 | -5 | 2 | Arbovirus anti repeat=5
Cc1ccnc(NC(=O)CCC(=O)N(CC(=O)NC2CCCCC2)Cc2ccccc2)c1 | 0.6 | -9% | nt | -1 | -9
Clc1cccc(CNCCCSc2ncccn2)c1 | -3.1 | nt | nt | -1 | nt
COc1ccccc1/C=C/C=N/NC(=O)CN1CCN(Cc2ccccc2)CC1 | 6.8 | 5% | nt | -6 | nt
COCCn1c(=N)c(C(=O)NCc2ccco2)cc2c(=O)n3cc(C)ccc3nc21 | -242 | -12% | nt | 0 | 1
CCOc1cc(C2NC(=O)NC(C)=C2C(=O)OCC2CCCCC2)ccc1O (centres undefined) | 1.2 | nt | nt | -7 | nt
C/C(O)=C(\C#N)c1nnc2n1CCCCC2 | 0.5 | -9% | -7 | -7 | 1
CCC(CO)Nc1nc(CN2CCCCC2)nc2scc(-c3ccccc3)c12 (centres undefined) | 4.7 | 8% | -16 | 9 | -9
Cc1c(C(N)=O)sc(N)c1C(=O)OC(C)C | nt | -2% | -30 | -1 | -5
COCC(C)n1c(SCC(=O)N2CCCCC2)nc2ccccc2c1=O (centres undefined) | 2.9 | nt | -27 | -6 | 8
O=C(O)Cc1ccc(C(=O)c2ccccc2)s1 | 3.3 | 2% | -15 | -12 | 6
CN(C(=O)CCNC(=O)Cn1cnc2ccccc2c1=O)c1ccc(F)cc1 | -0.1 | nt | nt | -14 | nt
Cc1ccccc1N1CCN(S(=O)(=O)c2ccccc2)CC1 | 6.8 | 4% | -26 | -2 | -3
COc1ccc(-n2c(SCC(=O)NCCCN3CCCC3=O)nnc2C(C)N2CCCCC2)cc1 (centres undefined) | -1.6 | 2% | nt | 2 | 3
Cc1cc(C)n2nc(C)[n+](C)c2n1 | 1.0 | -6% | -31 | -10 | 2
CCn1nc(CC(=O)Nc2ccc(-n3cnnn3)c(OC)c2)c2ccccc2c1=O | 1.6 | -3% | -1 | 5 | 8
COc1ccc(NS(=O)(=O)c2ccc(C)c(C(=O)NCc3cccnc3)c2)cc1 | -2.4 | nt | nt | -10 | nt
COc1ccccc1OCCNC(=O)c1ccco1 | -1.5 | nt | nt | -5 | nt
Cc1c(C(=O)Nc2ccccc2[N+](=O)[O-])csc1-c1ccccc1 | -3.0 | 7% | -25 | -4 | -12

Compounds above that have a tert-butyl group:
SMILES | RecA splice inh | Mtb growth | YopH PTP inh | Mtb bLac sens | Arbovirus anti | others
CCCCNC(=O)[C@H]1C[C@H]1[C@@H](O)[C@H](CO)NC(=O)[C@H](COCc1ccccc1)NC(=O)OC(C)(C)C | -2.0 | nt | nt | -4 | nt
CC(C)(C)c1ccc2c(c1)OC(C(=O)N/N=C\c1ccc[nH]1)CO2 (centres undefined) | 7.6 | nt | nt | ? | nt
Cc1ccc(N(CC(=O)NC(C)(C)C)C(=O)CCC(=O)Nc2nccs2)cc1C | 2.0 | nt | nt | 5 | nt

Later entries:
SMILES | RecA splice inh | Mtb growth | YopH PTP inh | Mtb bLac sens | Arbovirus anti | others
Cc1ccc(NC(=O)Cn2c(=O)c3cccn3c3ccccc32)c(C)c1 | -0.6 | nt | nt | 4 | nt
Cc1cccc(OCCCC(=O)Nc2ccc(N(C)C)cc2)c1 | -1.3 | -1% | -19 | 8 | -16
CCOC(=O)C1=NN(C(=O)c2ccccc2)C(O)(c2ccc(C)cc2)C1 (centres undefined) | 14 | -2% | -14 | -2 | 0
COc1ccc(C(CC(=O)NCCCN2CCOCC2)NS(=O)(=O)c2ccc(C)cc2)cc1 (centres undefined) | 4.1 | 0% | -30 | -10 | 9
c1ccc(Cc2nnc3sc(C4COc5ccccc5O4)nn23)cc1 (centres undefined) | -0.1 | 6% | -14 | nt | -3
O=C(Nc1ccc(C(=O)N2CCCC2)cc1)Nc1ccc(Cl)cc1Cl | -1.7 | -6% | -16 | -7 | -4
Cc1ccsc1/C=N/NC(=O)Nc1ccccc1 | -0.9 | 6% | nt | 1 | 9

Bioassay records deposited in PubChem BioAssay by several laboratories.
